# Rango dissoc inh: inhibition of RanGTP-driven Rango-importin beta dissociation | O95149+P62826 | AID 540253 | Biochemical FRET Rango-importin beta, RanGTP-induced dissociation | actives 0.071% (n = 340,000) | Potency, µM (highest dose often 46.1 µM), inactives show at the highest dose activity change, negative = inhibition; active means falling FRET ratio curve, often poorly fitted, with flat reads before Ran was added; inconclusive means other falling curves, or compound fluorescence or quenching; inactive means flat or rising ratio curve;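 note: potency is the fitted concentration of half-maximal effect; % of control where 0% means no effect; nearly all actives have a fitted effect of over 45% in size; -100% = wells without RanGTP and RCC1; the record marks most hits as doubtful in a second field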
#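 Quantitative HTS using a FRET biosensor: 0.1 uM Rango, 0.25 uM importin beta, 0.6 uM Ran, 2 mM GTP, 0.2 uM RCC1 final, PBS with DTT, Tween-20 and BSA. Post-read taken 45 min after Ran addition.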
# miR-21 reporter: raises the signal of a miR-21 reporter; HeLa miR-21 FLuc reporter, luciferase, 48 h; Potency, µM (highest dose often 38.3 µM), inactives show top-dose reporter change, positive = more light; 340,000 tested, under 10 active; AID 2288; active = well fitted rising curve with a large enough effect; inconclusive = small, poorly fitted or top-dose-only effect; inactive = no such curve, though single readings can be large or run the other way;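 note: % of control where 0% means no effect; miR-21 action dims this reporter so a rising signal means less miR-21 action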
#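 Luminescence from a firefly luciferase reporter carrying a miR-21 binding site downstream, stably expressed under a CMV promoter in HeLa cells that make miR-21 endogenously, reports miRNA modulation after 48 h compound exposure up to approximately 40uM final.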
# Rango-impB inh: Rango-importin beta binding inhibition. Rango CFP/YFP FRET sensor + importin beta, 45 min. Potency, µM (doses to about 92.2 µM), for inactives: at the top dose inhibition of complex formation. actives 0.031% (n = 340,000). AID 540263; active = rising FRET ratio curve, often small or poorly fitted; inconclusive = mostly compound fluorescence or quenching in the first reads; inactive = flat curves in all reads;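 note: potency is the fitted concentration of half-maximal effect; 0% = DMSO wells and 100% = buffer wells lacking importin beta; nearly all actives have a fitted effect of over 15% in size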
# Target sequence (Q14974 whole entry, looked up): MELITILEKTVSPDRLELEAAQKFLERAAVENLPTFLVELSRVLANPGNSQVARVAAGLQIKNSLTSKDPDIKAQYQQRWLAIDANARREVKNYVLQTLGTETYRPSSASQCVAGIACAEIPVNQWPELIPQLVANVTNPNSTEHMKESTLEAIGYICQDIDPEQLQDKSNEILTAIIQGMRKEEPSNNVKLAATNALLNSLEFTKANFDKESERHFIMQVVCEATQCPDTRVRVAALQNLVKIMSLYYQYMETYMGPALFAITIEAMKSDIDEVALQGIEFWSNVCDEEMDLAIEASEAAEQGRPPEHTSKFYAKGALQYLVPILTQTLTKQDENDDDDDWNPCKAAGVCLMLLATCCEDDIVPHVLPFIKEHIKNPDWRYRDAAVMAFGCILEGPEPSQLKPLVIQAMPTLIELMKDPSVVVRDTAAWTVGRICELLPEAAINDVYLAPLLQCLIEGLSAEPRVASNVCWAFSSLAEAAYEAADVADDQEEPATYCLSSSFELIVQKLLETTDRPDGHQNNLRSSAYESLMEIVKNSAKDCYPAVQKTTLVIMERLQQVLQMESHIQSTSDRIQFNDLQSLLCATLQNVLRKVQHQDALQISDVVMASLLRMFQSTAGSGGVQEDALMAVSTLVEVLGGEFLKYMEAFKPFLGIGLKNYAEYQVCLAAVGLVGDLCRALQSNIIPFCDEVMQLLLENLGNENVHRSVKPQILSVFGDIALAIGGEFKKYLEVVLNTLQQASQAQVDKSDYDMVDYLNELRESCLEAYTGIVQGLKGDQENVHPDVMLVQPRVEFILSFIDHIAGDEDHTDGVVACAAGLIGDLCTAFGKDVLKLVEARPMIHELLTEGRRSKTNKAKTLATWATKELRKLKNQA
#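 FRET biosensor Rango (snurportin 1 IBB between N-terminal EYFP and C-terminal Cerulean), 50 nM in PBS/1 mM DTT/0.02% Tween-20/0.1% BSA, preincubated 5 min RT with compound; 0.125 microM importin beta added, 45 min RT, CFP/YFP FRET ratio read.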
# GLA inh pH 4.5: alpha-galactosidase A (human) inhibition, pH 4.5; P06280; purified enzyme, 4-MU-alpha-Gal fluorescence, pH 4.5; activity change, negative = inhibition, % at 105 µM; 230,000 tested, under 10 active; AID 1467; inconclusive = small, poorly fitted or top-dose-only inhibition, or a rising curve; inactive = flat fitted curve, though single readings scatter; no compound was filed as active;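 note: 0% = full activity with enzyme and -100% = basal without enzyme; dose as in the result columns while the protocol names 77 µM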
# * hit, by the source's call; ? = inconclusive; . = not tested or not shown; & = joins results of further samples.
SMILES,Rango dissoc inh,miR-21 reporter,Rango-impB inh,GLA inh pH 4.5
Cc1ccc(N(C(=O)c2csnn2)C(C(=O)NC2CCCCC2)c2ccncc2)c(C)c1 (centres undefined),-3.7%,-1.1%,-1.1%,.
CC1CCCCC1NC(=O)COC(=O)COc1ccccc1Cl (centres undefined),5.9%,-1.8%,-1.3%,-1.0
COc1ccc(/C=C/C(=O)OCC(=O)NCc2ccco2)cc1OC,-0.6%,4.5%,0.0%,-0.1
CC1=NN(C(=O)c2ccc(Cn3cc([N+](=O)[O-])cn3)cc2)C(O)(C(F)(F)F)C1 (centres undefined),0.7%,-4.0%,0.7%,-3.5
Oc1[nH]c2ccccc2c1N=Nc1c(F)c(F)c(Cl)c(F)c1F,-6.5%,-13.0%,3.2%,.
Cn1c(Cl)cnc1C1CC(=O)c2cc(Cl)ccc2O1 (centres undefined),-16.9%,?,-0.8%,-0.1
COc1cc2cc(CN(Cc3cccnc3)C(=O)NCc3ccccc3)c(=O)[nH]c2cc1OC,-14.2%,3.4%,-0.8%,2.8
COc1cccc(NC(=O)c2sc3ncn(CC(=O)N4CCN(c5ccccn5)CC4)c(=O)c3c2C)c1,-6.4%,10.2%,-0.2%,.
COc1ccccc1C(=O)Nc1ccc(C2=NNC(=O)CC2C)cc1 (centres undefined),0.5%,-60.0%,1.5%,-2.6
COc1ccc(NC(=S)N2CCN(c3ccccc3)CC2)c(OC)c1,1.2%,-5.3%,-0.1%,.
O=C1OC(/C=C/c2ccccc2)=NC/1=C/c1ccco1,-26.3%,-13.6%,?,-4.4
CC(C)(C)c1ccc(C(=O)NC(=O)COC(=O)c2ccco2)cc1,16.1%,.,?,.
Cc1ccc(OCC(=O)Nc2sc3c(c2C#N)CCC3)cc1C,-11.8%,-12.9%,0.5%,-1.8
C#CCONC(=O)c1cc(OCC(F)(F)F)ccc1OCC(F)(F)F,-13.9%,0.9%,-5.6%,1.3
COc1cccc(CN2CCN(Cc3nc(-c4cccs4)oc3C)CC2CCO)c1 (centres undefined),30.0%,5.8%,-1.5%,4.9
Cc1nonc1NC(=O)c1ccccc1Br,-2.7%,0.3%,-4.3%,4.3
CCN(CC(=O)Nc1ccc(OC)cc1)CC(=O)Nc1ccc(Cl)cc1F,-5.7%,2.9%,-0.7%,-4.1
Cc1cccc(N(CC(=O)NC2CCCC2)C(=O)CS(=O)CC(=O)Nc2ccc3c(c2)OCO3)c1C (centres undefined),0.1%,-4.2%,-2.1%,2.0
COc1ccc(CNC(=O)CN(c2cc(C)cc(C)c2)S(=O)(=O)c2c(C)[nH]c(=O)[nH]c2=O)cc1,-0.1%,-1.9%&0.4%,-1.9%,.
O=C(c1ccc(F)cc1)N1CCN(Cc2ccccc2)CC1,12.0%,3.4%,0.4%,.
CCOc1ccc(N2C(=O)Nc3ccccc3C2(O)C(=O)NCc2ccc(OC)cc2)cc1 (centres undefined),4.3%,0.8%,-2.9%,-10.1
Cc1ccc(C(CNS(=O)(=O)c2ccc(Cl)cc2)N2CCN(C)CC2)cc1 (centres undefined),-10.7%,.,-0.6%,.
Cc1cccc(CSCCNC(=O)c2ccc(CN3CCOCC3)cc2)c1,5.2%,3.6%,0.0%,-0.4
COc1ccc(NC(=O)c2c(C)oc3c2CCCC3)cc1,-18.1%,-32.4%,?,0.9
Cc1ccccc1C(=O)O/N=C(\c1ccccc1)c1ccccn1,3.8%,-6.5%,3.1%,-2.7

# Overlap with the part before: 4 entries, followed by the next part.
SMILES,Rango dissoc inh,miR-21 reporter,Rango-impB inh,GLA inh pH 4.5
Cc1ccc(C(CNS(=O)(=O)c2ccc(Cl)cc2)N2CCN(C)CC2)cc1 (centres undefined),-10.7%,.,-0.6%,.
Cc1cccc(CSCCNC(=O)c2ccc(CN3CCOCC3)cc2)c1,5.2%,3.6%,0.0%,-0.4
COc1ccc(NC(=O)c2c(C)oc3c2CCCC3)cc1,-18.1%,-32.4%,?,0.9
Cc1ccccc1C(=O)O/N=C(\c1ccccc1)c1ccccn1,3.8%,-6.5%,3.1%,-2.7
CCN(CCNC(=O)Cn1c(=O)sc2ccccc21)c1ccccc1,3.8%,-7.7%,3.9%,0.2
COc1ccc(C(=O)NC(=S)NNC(=O)[C@H]2C[C@@H]2c2ccccc2)cc1OC,-11.8%,4.2%,3.8%,-5.8
CC1Cc2ccccc2N1C(=O)CSc1nnc2c(n1)[nH]c1ccccc12 (centres undefined),-8.9%,3.3%,2.3%,-0.2
CCCc1nnc(NC(=O)c2oc3ccccc3c2COCC)s1,-1.6%,.,-0.1%,.
Cn1ncc(Br)c1C(=O)Nc1cccc(C(F)(F)F)c1,-3.6%,-6.9%,-1.9%,-8.9
CCN(CC)c1cc(C)c2ccccc2n1,-1.6%,-3.8%,1.9%,0.2
CC(=O)c1ccc(S(=O)(=O)N(C)CC(=O)Nc2cc(C)on2)cc1,-8.5%,.,0.1%,.
O=C(COC(=O)CSc1cccc2cccc(Cl)c12)Nc1ncc(C(F)(F)F)cc1Cl,-6.7%,0.0%,-4.8%,3.5
CC(=O)C[C@H](O)CC(=O)[C@H]1OC(=O)[C@@H](C)CCCCc2ccccc21,29.2%,.,1.7%,.
COCCCNc1nc(N)c([N+](=O)[O-])c(NCc2ccccc2)n1,15.6%,-19.4%,1.7%,.
CCO[C@H]1OC(C(=O)N2CCN(Cc3ccc4c(c3)OCO4)CC2)=C[C@@H](c2ccc3c(c2)OCO3)[C@@H]1CCCO,4.7%,6.2%,-1.7%,-7.8
Cc1c(/C=C2\SC(=Nc3cccc(C(=O)O)c3)NC2=O)c2ccccc2n1C,?,-18.3%,?,-1.2
CC(=O)c1ccc(N2CCN(CC(=O)Nc3ccccc3N3CCOCC3)CC2)cc1,-7.6%,2.1%,-1.2%,-10.2
Cc1cc2c(C)cc(=O)oc2c2c1NCCC2,?,-1.2%,?,?
O=C(O)CN1C(=O)/C(=C\c2cc([N+](=O)[O-])ccc2OCc2ccccc2Cl)SC1=S,6.3%,0.1%,-4.3%,.
CCOc1ccc(Oc2ccc(NS(=O)(=O)c3cc(C(=O)O)ccc3Cl)cc2)cc1,-4.9%,.,0.6%,.
Cc1nn(CCC(=O)N2CCN(S(=O)(=O)c3ccccc3)CC2)c(C)c1C,-9.6%,3.4%,0.7%,.
COc1ccccc1NS(=O)(=O)c1cc(N/C(=N\S(=O)(=O)c2ccccc2)c2ccc(F)cc2)ccc1Cl,-17.0%,12.9%,0.7%,-9.5
Cc1ccc(C)c(NC(=O)CSc2nc(N)c(NC(=O)c3cccs3)c(=O)[nH]2)c1,3.7%,-6.4%,2.5%,3.8
COCCn1c(Cc2ccccc2)nnc1SCC(=O)NC1CC1,-0.8%,0.1%,-2.5%,.
O=C(CCN1CCCCC1=O)NC1CCCN(Cc2ccc(Cl)cc2)C1 (centres undefined),-10.6%,14.1%,0.7%,.
COc1ccccc1NC(=O)C1=C(C)NC(=O)NC1c1cc(C)cs1 (centres undefined),-8.6%,-2.7%,1.5%,0.3
COc1cccc(CN(C)C(=O)c2cccc(NC(=O)CC3SC(N4CCCCC4)=NC3=O)c2)c1OC (centres undefined),?,.,?,.
COc1ccc(CCNC(=O)C(=O)NCC2CCCO2)cc1OC (centres undefined),-7.7%,-13.0%,-2.6%,0.1
O=C(NC1C2CC3CC(C2)CC1C3)C1CC1 (centres undefined),15.3%,-13.4%,1.9%,-14.2

# Next section.
SMILES,Rango dissoc inh,miR-21 reporter,Rango-impB inh,GLA inh pH 4.5
Cc1ccc(Oc2nc3c(c(=O)n(C)c(=O)n3C)n2C)cc1C,-3.7%,9.6%,-1.6%,-1.6
COC(=O)[C@@]1(Cc2ccccc2)[C@H]2C(=O)N(Cc3ccccc3)C(=O)[C@H]2[C@H]2CN=C(SCC(=O)c3ccccc3)N21,-10.9%,.,-1.8%,.
O=C(NC1CCN(C(=S)NCCc2ccccc2)CC1)C1CCCCC1,-0.1%,1.1%,-2.1%,1.3
Cc1cc(OCc2nnc(SCC(=O)OC3CCCCC3)o2)ccc1Cl,-15.8%,0.9%,-0.3%,-5.2
NS(=O)(=O)c1ccc(NC(=O)COc2ccc(Cl)cc2)cc1,3.0%,0.6%,4.3%,.
Brc1cc(Br)c2ncnc(N3CCCCC3)c2c1,-8.9%,-7.9%,3.9%,1.0
CCc1nc(CN(C)C(=O)C2CCC(=O)N(Cc3cccc(F)c3)C2)no1 (centres undefined),6.2%,-1.8%,-3.2%,.
O=c1cc(O)c2ccccc2n1Cc1ccccc1F,0.2%,4.4%,-1.2%,-1.6
CCCn1c(-c2ccncc2)n[nH]c1=S,9.5%,5.3%,3.1%,-0.5
O=C(O)c1ccccc1C(=O)c1ccc2c(c1)N(Cc1cccc(F)c1)C(=O)CO2,1.1%,-5.4%,-0.9%,-2.1
COc1ccccc1/C=C/C(=O)OCC(=O)N1CCCCC1,-3.9%,.,2.7%,.
O=C(COC(=O)CC1CC2CCC1C2)NC(=O)NCc1ccco1 (centres undefined),2.5%,0.0%,0.4%,-5.2
Cc1ccc(N2C(=O)C(Cl)=C(Nc3c(C)n(C)n(-c4ccccc4)c3=O)C2=O)cc1,6.8%,-5.0%,3.0%,0.9
COc1ccc(NS(=O)(=O)c2cccc(C(=O)NNC(=O)c3cccn3C)c2)cc1,0.2%,-0.7%,-3.6%,.
Brc1ccc([C@H]2CN3CCSC3=N2)cc1,0.3%,.,-1.1%,-6.8
O=c1cc(CN2CCN(c3ccccc3)CC2)c2c(ccc3ccccc32)o1,-1.1%,-11.9%,0.3%,-2.1
Cc1ccc(Oc2nnc(-c3cccs3)c3ccccc23)cc1,-2.3%,1.3%,0.8%,-1.1
COc1ccc(Cc2nnc(NC(=O)c3cccc([N+](=O)[O-])c3C)s2)cc1,24.1%,0.9%,-4.4%,-2.6
CCOc1ccc(NC(=O)C(C)O)c(NS(=O)(=O)c2ccc(CCNC(C)=O)cc2)c1 (centres undefined),-2.7%,-1.5%,-2.0%,-8.2
C=CCOc1ccc2c(OC)c3ccoc3nc2c1OC,-1.1%,-77.4%,1.7%,0.0
O=C(Nc1nccs1)c1ccc(NC(=O)c2ccco2)cc1,-21.8%,-40.6%,-0.2%,0.2
COc1ccccc1-c1nc(C(F)(F)F)c(OC)o1,12.3%,0.7%,-2.4%,0.1
CCC1CSC(=Nc2ccc(C)cc2)N1C(=O)CN1C(=O)NC2(CCCC2)C1=O (centres undefined),1.0%,13.5%,-4.4%,.
Cc1ccc(C(=O)NC2(C(F)(F)F)N=C3SCCN3C2=O)cc1 (centres undefined),-19.1%,-1.2%,11.2%,4.9
CCn1cc(C(=O)Nc2ccc(C(=O)N3CCCC3)cc2)c(=O)c2ccc(C)nc21,.,-2.2%,.,2.4

# Next part:
SMILES,Rango dissoc inh,miR-21 reporter,Rango-impB inh,GLA inh pH 4.5
CC(=O)NC1C(=O)N=C(SCc2ccccc2)NC1=O (centres undefined),-7.1%,-1.6%,1.9%,0.4
Cc1cccc(NC(=O)c2ccc(F)c(S(=O)(=O)NCc3ccco3)c2)c1,3.2%,12.5%,-0.2%,.
CC(=O)/C(=N/Nc1ccccc1)N1CCOCC1,0.2%,-2.6%,-1.2%,-2.4
COc1ccc(OCC(=O)Nc2cc(S(=O)(=O)N3CCCCC3)ccc2OC)cc1,?,.,-2.3%,.
CCOC(=O)C1CCCN(C(=O)Cc2ccc(C)cc2)C1 (centres undefined),14.3%,-6.6%,4.6%,6.5
O=C(CC(c1ccccc1)c1ccccc1)NCCOCc1ccccc1,-10.8%,1.7%,-1.3%,.
COc1ccc(CNC(=O)COc2cc3c(c4oc(=O)cc(C)c24)CCC(C)(C)O3)cc1OC,-4.4%,-0.2%,-1.4%,.
CC(C)Cn1c(Cc2ccccc2)n[nH]c1=S,-8.8%,0.3%,6.5%,-7.9
COc1cc(/C=C/C(=O)O)ccc1OS(=O)(=O)c1cc(C)ccc1C,?,-2.8%,?,-2.7
C/C(CC(=O)Nc1ccc([N+](=O)[O-])cc1)=N/NC(=O)C1C2CCCCC21 (centres undefined),-2.5%,-11.7%,1.0%,-7.8

# Compound activity deposited in PubChem BioAssay by National Center for Advancing Translational Sciences (NCATS).

# This is a subset; rates above refer to the full screens.
